HPGD inh – HPGD (human) dehydrogenase inhibition; P15428; purified HPGD, NADH fluorescence kinetic, PGE2 substrate; Potency, µM, for the others: top-dose activity change, negative = inhibition, actives largely listed as inhibitors; 150,000 compounds, 4.3% hits; AID 894; active = well fitted inhibition curve with a large enough effect (not every such curve was filed as active); inconclusive = small, poorly fitted or top-dose-only effect, or another doubt; inactive = no such curve, though single readings can be large or run the other way;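 note: top concentration of the series not given in the record; plate controls included wells without enzyme; inactives centre near -10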
Target sequence (P15428 whole entry, looked up): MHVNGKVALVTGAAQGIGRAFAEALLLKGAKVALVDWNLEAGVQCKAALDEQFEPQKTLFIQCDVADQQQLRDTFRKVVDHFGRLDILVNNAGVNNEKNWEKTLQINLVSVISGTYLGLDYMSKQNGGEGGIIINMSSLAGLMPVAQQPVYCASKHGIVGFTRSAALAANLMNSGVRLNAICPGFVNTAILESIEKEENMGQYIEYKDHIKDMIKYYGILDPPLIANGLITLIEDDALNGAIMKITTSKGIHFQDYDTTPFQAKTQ
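NADH formation kinetics: reaction with 30 uM PGE2 and 1 mM NAD+ (final), 20 nM enzyme, Tris-HCl pH 8 with Tween 20, after 15 min compound preincubation at room temperature. Fluorescence change, last versus first of five reads.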
* hit, by the source's call; u = inconclusive; & = joins results of further samples; [ ] = dose if it differs, or a comment. % is set by controls: 0 for no effect and ±100 for the full control effect; potency is the fitted concentration of half-maximal effect.

SMILES	HPGD inh
N/C(=N\O)C1COc2ccccc2O1 (stereo unspecified)	-12.7%
Cc1c(C2Nc3ccccc3C(=O)N2O)cnn1C (stereo unspecified)	-3.2%
COCC(=O)N1CCC2(CCN(Cc3cc(C(F)(F)F)cc(C(F)(F)F)c3)CC2)CC1	-7.9%
O=c1[nH]c(CSc2nnc(-c3ccccc3)n2-c2ccccc2)nc2ccccc12	-14.1%
CN(C(=O)c1cccs1)c1ccccc1C(=O)O	u
O=C(Nc1ccc(-c2nc3ccccc3o2)cc1)c1cc(-n2cnnc2)ccc1Cl	-22.5%
O=C(COc1ccccc1Cl)Nn1cnnc1	-9.8%
CCCCNC(=O)CN(C1CCCCC1)S(C)(=O)=O	-1.2%
Cc1cc(NC(=O)c2cc(C3CC3)on2)n(-c2ccccc2)n1	-18.8%
CC1(C(=O)NCCN2CCOCC2)C=CC2(CCCCC2)N1C(=O)c1ccccc1 (stereo unspecified)	-7.2%&-4.6%
O=C(CSc1ccc2nnc(-c3cccnc3)n2n1)N1CCOCC1	u
COc1cccc(NC(=O)C23CCC(C)(C(=O)O2)C3(C)C)c1 (stereo unspecified)	-13.4%
Cc1cccc(C)c1NC(=O)CC1SC2=NCCN2C1=O (stereo unspecified)	-10.5%
COC(=O)c1cccc(NC(=O)C2COc3ccccc3O2)c1C (stereo unspecified)	-15.8%
C=CCc1ccc(OCCCCNC(C)CC)c(OC)c1 (stereo unspecified)	1.2%
COc1ccc(C2/C(=C(/O)c3ccc(C)cc3)C(=O)C(=O)N2C)cc1 (stereo unspecified)	-11.3%
CCOc1ccc(-n2nc(C(=O)N3CCN(CC)CC3)c3ccccc3c2=O)cc1	-19.9%
CCOC(=O)c1c(C)[nH]c(C(=O)COC(=O)CNC(=O)c2ccc(Cl)cc2Cl)c1C	-14.6%
Nc1ccc2oc(-c3cccc4ccccc34)nc2c1	22.4µM*
O=C(NCc1nnc(SCC(=O)N2CCCC2)o1)c1ccccc1F	-1.0%
CCc1ccccc1NC(=O)/C(C#N)=C/c1ccc(Sc2ccccc2)o1	-10.6%
O=C(Nc1ccc(N2C(=O)C3C4C=CC(C4)C3C2=O)cc1)Nc1nncs1 (stereo unspecified)	-21.1%
O=C(NCCc1ccccc1)C1CCCN(S(=O)(=O)c2cccs2)C1 (stereo unspecified)	1.5%
CCc1ccccc1N1CC(C(=O)O)CC1=O (stereo unspecified)	-2.4%
CC1CCC2C(=O)N(c3cccc(OS(=O)(=O)c4ccccc4)c3)C(=O)C2C1 (stereo unspecified)	-12.5%
CCCc1cc(C(=O)NCc2ccc(OC)cc2)no1	-7.1%
Cc1ccc(-n2c(=O)c(C#N)cc3c(=O)n4cccc(C)c4nc32)cc1	u
COc1cccc(C(=O)/C=C/c2ccc(OCC#N)c(OC)c2)c1	-23.2%
CC(C)(C)Nc1c(N)c(=O)oc2ccccc12	-10.2%
O=C(OC1CCOC1=O)c1cc(-c2ccccc2)nc2ccccc12 (stereo unspecified)	u

The last two compounds of the part before lead into the next.
SMILES	HPGD inh
CC(C)(C)Nc1c(N)c(=O)oc2ccccc12	-10.2%
O=C(OC1CCOC1=O)c1cc(-c2ccccc2)nc2ccccc12 (stereo unspecified)	u
Cc1nn(Cc2c(F)c(F)c(F)c(F)c2F)c(C)c1NC(=O)c1cccc(COc2ccccc2Cl)c1	-21.6%
Cc1ccc(C(=O)Nc2ncc(Cc3ccc(F)cc3)s2)o1	u
O=C(N1CCOCC1)N1CCC(c2nc(-c3ccc(S(=O)(=O)N4CCOCC4)cc3)no2)CC1	-9.2%
Cc1ccc(-n2c(SCC(=O)Nc3cccc(S(=O)(=O)NC4=NCCCCC4)c3)nc3ccccc3c2=O)cc1C	-17.8%
CN(C)S(=O)(=O)c1ccc(Cl)c(NC(=O)COc2ccccc2[N+](=O)[O-])c1	-2.9%
CCN(CC)S(=O)(=O)c1ccc(N2CCCC2)c(NS(=O)(=O)c2ccc(F)cc2)c1	-26.6%
O=C(N/N=C/c1ccc(OCC(=O)N2CCCCC2)cc1)c1ccccc1	14.1µM*
O=C(O)/C=C/C(=O)Nc1ccccc1-c1ccccc1NC(=O)/C=C/C(=O)O	-15.8%
Cc1n[nH]c(C)c1S(=O)(=O)N1CCN(c2ccccn2)CC1	-11.3%
COc1ccc(CC(=O)NCC2(c3ccc(OC)c(OC)c3)CCOCC2)cc1	-1.3%
COc1ccc2[nH]cc(CCNC(C)=O)c2c1	u
COc1cc(/C=N/n2nnnc2Nc2ccccc2)cc(OC)c1OC	-16.7%
CCOc1ccc2c(c1)sc(N)[n+]2Cc1cc(C)cc2cccnc12	-11.0%
N#CC1=C(N)C(C#N)(C#N)C(c2ccc[nH]2)C2CCCC=C12 (stereo unspecified)	-26.4%
NC(=O)c1ccccc1N/C=C/C(=O)c1ccco1	-11.0%
NC(=O)C[C@@H]1NC(=O)CNC(=O)c2cc([N+](=O)[O-])cc(I)c2NCCC(C(N)=O)NC1=O (stereo partly specified)	-8.6%
Cc1nnc(SCc2cc(=O)oc3cc(O)ccc23)n1Cc1ccccc1	45.8%[activator]
COC(=O)c1c(NC(=O)c2nc3ccccc3s2)sc2c1CCN(C(C)=O)C2	-28.9%
Cc1ccc(NC(=O)c2cccc(NC(=O)/C=C/c3ccco3)c2)cc1C	-13.9%
COc1ccc(NCCNc2ccc(OC)cc2)cc1	-5.2%
CC(=O)Nc1ccccc1C(=O)C(=O)Nc1ccc(F)cc1	-2.5%
CCn1c(SCC(=O)Nc2nc(C)cs2)nnc1-c1ccco1	-3.2%
O=C(c1ccccc1)c1ccncc1	-9.7%
Cc1ccc(N(O)C(=O)OCCNC(=O)Nc2ccccc2)cc1	-3.6%
CCCCCCc1nnc(NC(=O)OCC)s1	-9.8%
O=C(c1ccco1)N1CCN(c2ccc(Cl)cc2)CC1	-5.6%
COc1cc(C(C(=O)NC(C)(C)C)N(C(=O)CNC(=O)c2cccs2)c2ccccc2)cc(OC)c1OC (stereo unspecified)	-4.4%
CC1CC1C(=O)OCC(=O)Nc1ccc(N=Nc2ccccc2)cc1 (stereo unspecified)	-12.0%
Nc1ccc(-c2ccc3ccccc3n2)cc1	u
CC(=O)Nn1cnc2c(c1=O)C1(CCCCC1)Cc1ccccc1-2	-0.1%
Cc1ccc(-n2nnnc2SCC(=O)Nc2sc(C)c(C)c2C#N)cc1C	-19.8%
COc1ccc(NC(=O)CN2CCC(Cc3ccccc3)CC2)cc1S(=O)(=O)N1CCOCC1	-4.8%
COc1ccc(NS(=O)(=O)c2cc(NC(=O)c3cccc(OCc4c(C)noc4C)c3)ccc2OC)cc1	-17.0%
Cc1c(Cl)cccc1NC(=O)CCN1CCCC(C)C1 (stereo unspecified)	6.0%
COc1ccc(NC(=O)c2ccc(NC(=O)COC(=O)CC(NC(=O)c3ccccc3Cl)c3ccccc3)cc2)cc1 (stereo unspecified)	-23.4%
O=c1[nH]c2ccc(S(=O)(=O)N3CCN(c4ccccc4F)CC3)cc2s1	-7.6%
c1ccc(-c2noc(C34CC5CC(CC(C5)C3)C4)n2)cc1	0.2%
O=C(Cc1ccccc1Cl)NNC(=O)Nc1ccccc1	1.9%
CCOC(=O)c1cc(-c2ccccc2)sc1NC(=O)CC	u
Cn1cccc1C(=O)NC(=O)COC(=O)Cc1coc2ccc3ccccc3c12	-13.2%
CCOc1cccc(N2C(=O)CC(NCc3ccc(S(N)(=O)=O)cc3)C2=O)c1 (stereo unspecified)	-7.0%
CCOc1ccc(N2Cc3ncccc3C2=O)cc1	-21.4%
COc1cc2cc(C(c3nnnn3C(C)(C)C)N3CCc4ccccc4C3)c(=O)[nH]c2cc1OC (stereo unspecified)	u
Cc1ccc(N2C(=O)C3C(C2=O)N2C(c4cccs4)C4C(=O)N(c5ccc(C)cc5)C(=O)C4N2C3c2cccs2)cc1 (stereo unspecified)	-5.5%
O=C(CSc1ccc2nnc(-c3ccccn3)n2n1)N1CCN(c2ccccc2)CC1	-11.9%
O=C(c1ccccc1)N1CCN(C2CCCCC2)CC1	-6.2%
Oc1ccc(C=Nc2ccccc2-c2nc3ccccc3[nH]2)cc1	u
Cc1noc(C)c1COC(=O)CCCc1c[nH]c2ccccc12	u
Cc1cc(C)c2nc(SCC#N)cc(C)c2c1	-7.1%
Cc1cc(C)nc(N2CCC(C(=O)NCCc3ccccc3)CC2)n1	-20.5%

Additional entries follow.
SMILES	HPGD inh
Cc1ccc(C)c2[nH]c(=O)c(CCNC(=O)CC(C)(C)C)cc12	-18.4%
CC(C)c1ccc(NS(=O)(=O)c2ccc3[nH]cc(C(=O)N4CCC(C(N)=O)CC4)c(=O)c3c2)cc1	-13.7%
CC(Cl)C(=O)c1c(N)n(C)c(=O)n(C)c1=O (stereo unspecified)	-11.9%
O=C(Nc1ccc(Cl)cc1)[C@@H]1[C@@H]2C(=O)N(c3ccc(Cl)cc3Cl)C(=O)[C@@H]2[C@H]2C=CC=NN21	28.2µM*
CC(C)N1C(=O)S/C(=C/c2ccc(Sc3nc4ccccc4[nH]3)o2)C1=O	-27.0%
COc1ccc2[nH]c(=O)c(CN(C)C(=O)C3CCCCC3)cc2c1	u
O=C(c1ccc(F)cc1)N1CCN(c2cc(=O)[nH]nc2-c2ccccc2)CC1	-2.9%
O=C(Oc1nsnc1N1CCOCC1)N1CCOCC1	-12.3%
Cc1ccsc1CN1CCN(c2ccccn2)CC1	-14.9%
Cc1c(F)cccc1NC(=O)CSCC(=O)Nc1ccccc1	-23.9%
CS(=O)(=O)Nc1ccc(Br)cc1C(=O)c1ccccc1	-15.6%
CNS(=O)(=O)c1cnccc1N1CCN(c2cccc(C(F)(F)F)c2)CC1	-6.1%
CC(=O)Nc1ccc(S(=O)(=O)NCc2ccc(C)cc2)cc1	-15.3%
CCOC(=O)N1CCC(N(CCN(C)C)C(=S)Nc2ccccc2C)CC1	-0.2%
C/C(=N\NC(=O)C(C)n1nc(C)c([N+](=O)[O-])c1C)c1ccccc1O (stereo unspecified)	-20.9%
CCOC(=O)c1cccc(NC(=O)/C=C/c2ccc([N+](=O)[O-])cc2)c1	-4.2%
OC/C(Br)=C(\Br)CO	-2.2%
C[C@H]1CC[C@H]2C(=O)N[C@H](Cc3ccccc3)C(=O)N2[C@@H]1c1ccccc1	-7.3%
COC(=O)c1[nH]nc(C(=O)OC(C)(C)C)c1-c1ccccc1	1.2%
CC1CN(C(=O)C(Sc2ccccc2)c2ccccc2)CC(C)O1 (stereo unspecified)	-2.6%
c1ccc(N2CCN(c3ncccn3)CC2)cc1	-5.6%
Cc1cc(C)c(C#N)c(SCc2ccccc2C)n1	-17.1%
CCNc1c(N)c(=O)oc2ccccc12	-15.7%
COc1cccc(-n2c(SCC(=O)Nc3sc4c(c3C(N)=O)CCC4)nc3ccccc3c2=O)c1	u
COC(=O)c1ccc(C(=O)OC)c(NC(=O)CS(=O)(=O)Cc2ccccc2)c1	-16.3%
O=C1c2ccccc2C(=O)N1Cc1ccc2c(c1)OCO2	-16.6%
CC1(C)Cc2c(c(-c3ccccc3)[nH]c(=O)c2C#N)CO1	u
Cc1cc(C)n(-c2nc(C)nc3sc4c(c23)CCC(C)C4)n1 (stereo unspecified)	-10.5%
Nc1ccn([C@@H]2O[C@H](COC(=O)C34CC5CC(CC(C5)C3)C4)[C@@H](O)[C@@H]2O)c(=O)n1	-14.2%
CCC(=O)Oc1ccc(C(=O)Nc2c[nH]c(=O)[nH]c2=O)cc1	-18.7%
C#CCSc1nc2ccccc2n1C(=O)c1ccc(S(=O)(=O)N2CCCCC2)cc1	-9.5%
Cc1cc(C)nc(CC(N)=O)n1	-1.2%
COc1cc2c(C#N)c(N3CCCCC3)nc(N)c2c(N)n1	u
FC(F)(F)c1cc(NC(=S)NC(c2ccccc2)c2ccccc2)cc(C(F)(F)F)c1	-3.1%
COc1cc(C(=O)Nc2nc(-c3cc(C)ccc3C)c(C)s2)ccc1OCC(=O)Nc1ccc(F)cc1	u
CC(N)CN (stereo unspecified)	-10.3%
CC(C)OC(=O)c1sc2nc(-c3ccccc3)ccc2c1N	u
Cn1cc(S(=O)(=O)N2CCN(C(=O)c3ccco3)CC2)c(=O)n(C)c1=O	-12.0%
COc1ccccc1N1CCN(C(=O)c2ccccc2Oc2ccccc2)CC1	-17.6%
Cc1occc1-c1nnc(SCC(=O)N2CCCc3ccccc32)n1Cc1ccco1	-8.1%

Random excerpt: two records from the list, in no set order.
SMILES	HPGD inh
C#CCSc1nc2ccccc2n1C(=O)c1ccc(S(=O)(=O)N2CCCCC2)cc1	-9.5%
COc1cc2c(C#N)c(N3CCCCC3)nc(N)c2c(N)n1	u

Additional compounds
SMILES	HPGD inh
O=C(Nc1ccc(F)cc1)N1CCOCC1	-7.0%
CNc1nc2c(C)cccn2c(=O)c1C=NCc1ccccc1	u
COc1ccc(N2C(=O)C3C4C=CC(C4)C3C2=O)nn1 (stereo unspecified)	-2.2%
CCc1cc2c(=O)c(-c3nc4ccccc4n3C)c(C(C)C)oc2c(CN2CCN(C)CC2)c1O	u
CCCc1cc(C(=O)Nc2sc(C(C)=O)c(C)c2C(=O)OCC)no1	u
Cc1nc2c(O)cccc2c(=O)[nH]1	-8.7%
O=C1CCCC(=O)N1c1ccc(N2CCN(c3ccc([N+](=O)[O-])cc3)CC2)c([N+](=O)[O-])c1	-13.9%

Screening data deposited in PubChem BioAssay by National Center for Advancing Translational Sciences (NCATS).

A portion of the library; the hit share may differ from the screen's.
